MT1-MMP act inh = MT1-MMP (human) activation inhibition; P50281; HT1080 RFP-PRO-GFP cells, GFP/RFP ratio fluorescence, overnight; percent of plate control window, DMSO zero; GFP/RFP ratio change, % at 20 µM; 360,000 tested, 0.061% active; AID 651647;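 active means GFP/RFP ratio change of at least 30% with cell ATP level not reduced by more than half and red fluorescence within 50% of control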; further: strong numbers were not always called active
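Material – HT1080 RFP-PRO-GFP cells · Control set – DMSO wells and RFP-L50D-GFP cells · Incubation – overnight cell settling, then overnight compound exposure, 37 °C, 5% CO2 · Compound dosing – single-point 20 µM compound, 1% DMSO · Read-out – GFP/RFP fluorescence ratio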
Yeast UUG start = alters start codon recognition fidelity in yeast; activity score, % at 18.7 µM; AID 602363; 350,000 tested, 0.13% active; S. cerevisiae UUG-firefly luciferase reporter, luminescence/redox ratio;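 active means replicate mean at a twofold rise or more, about +100% in these data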;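 further: firefly luciferase made from a UUG start codon reports start codon fidelity; reporter light over untreated wells divided by growth signal over untreated wells; some hits fall short of that in this replicate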
MT1-MMP act inh RFP = second read-out of MT1-MMP act inh, no call of its own (marks repeat the call); RFP signal change, %; measured here: RFP expression control read;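 0 = vehicle wells; hits needed this value within 50% of zero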
* hit, by the source's call; & = joins results of further samples. The list is partial; count on the stated rates, not on these rows.

SMILES	MT1-MMP act inh	MT1-MMP act inh RFP	Yeast UUG start
C[C@@H]1CN([C@@H](C)CO)C(=O)CCCn2nncc2CO[C@H]1CN(C)C(=O)Nc1ccccc1C(F)(F)F	7	9	-1&20
Cn1c(N)c(C(=O)CSc2nnc(C3CC3)n2-c2ccccc2)c(=O)n(C)c1=O	-3	5	-19
Cc1cc(SCC(=O)N2CCN(C(=O)c3ccco3)CC2)c(C)cc1Br	5	3	-13
O=C(NCC(c1cccs1)N1CCOCC1)c1cccc(S(=O)(=O)Nc2ccc(F)cc2)c1 (configuration not stated)	-2	0	-14
COc1cccc(CN(C)C[C@@H]2OCc3cnnn3CCCC(=O)N([C@H](C)CO)C[C@H]2C)c1	-2	6	-1
CN(Cc1cnn(-c2ccc(F)cc2)c1)C(=O)[C@H]1O[C@@H](n2ccc(=O)[nH]c2=O)[C@H](O)[C@@H]1O	1	3	-8
COC1C(O)C(O)C(O)C(O)C1O (configuration not stated)	1	3	-19
O=C(Nc1cc(Cl)ccc1Cl)P(=O)(O)c1ccccc1	2	-2	-7
Cc1cc(C)cc(C(O)c2ncc(-c3cccc(F)c3)[nH]2)c1 (configuration not stated)	1	2	-10
COc1ccc([C@@H]2CC(=O)[C@@H]3CN(S(=O)(=O)c4ccc(Cl)cc4)[C@H](c4ccc(C)cc4)C[C@@H]3N2S(=O)(=O)c2ccccc2)cc1	-1	-2	-16
CC(=O)Nc1ccc(S(=O)(=O)N[C@@H](C)C(=O)N2CCN(C/C=C/c3ccccc3)CC2)cc1	5	-10	-5
CSCC[C@H]1COC[C@@H](Cc2ccccc2)N1c1ccccc1	-2	-7	-18
Cc1ccc(C(=O)CCC(=O)OCC(=O)NNC(=O)c2ccccc2Cl)cc1	-2	-1	-21
O=C1NC2CCCCC2C(=O)N1OS(=O)(=O)c1ccccc1 (configuration not stated)	3	3	-20
O=C(CN1C(=O)C2CC=CCC2C1=O)Nc1nnc(C2CC2)s1 (configuration not stated)	-1	0	-16

A few values from above.
Value for CN(Cc1cnn(-c2ccc(F)cc2)c1)C(=O)[C@H]1O[C@@H](n2ccc(=O)[nH]c2=O)[C@H](O)[C@@H]1O under MT1-MMP act inh RFP: 3
Value for O=C1NC2CCCCC2C(=O)N1OS(=O)(=O)c1ccccc1 (configuration not stated) under MT1-MMP act inh: 3

(cont.)
SMILES	MT1-MMP act inh	MT1-MMP act inh RFP	Yeast UUG start
N#Cc1ccc(OCC(=O)N2CCCC2=O)cc1	3	4	-3
C[C@@H]1CN([C@@H](C)CO)C(=O)CCCn2nncc2CO[C@H]1CN(C)S(=O)(=O)c1cccs1	-3	2	11&-4
CC(=O)Nc1nc(-c2ccccc2)cc(-c2ccco2)c1C#N	-1	2	-18
CCN(C(=O)COC(=O)c1ncc(Cl)c(Cl)c1Cl)c1c(N)n(Cc2ccccc2)c(=O)[nH]c1=O	2	4	-5
Cc1ccc(S(=O)(=O)N2C[C@H]3[C@H]4C(=O)N(Cc5ccccc5)C(=O)[C@H]4CC(=O)[C@H]3[C@@H]2c2ccccc2)cc1	-1	3	-21
O=C(C=Cc1ccccc1)c1ccc([N+](=O)[O-])cc1	0	-3	28
CCC(C)N(C(=O)CSc1nc(-c2cccs2)nc2ccccc12)C1CCS(=O)(=O)C1 (configuration not stated)	1	-3	-2
CN1CCN(S(=O)(=O)c2ccc(Nc3cccc(Cl)c3)c([N+](=O)[O-])c2)CC1	1	3	-9
CCc1nc(C)cn1S(=O)(=O)c1ccc2c(c1)OCCO2	1	2	-5
O=C1CCc2cc(Br)ccc2O1	1	9	-11
C[C@H]1CN([C@@H](C)CO)C(=O)CCCn2nncc2CO[C@H]1CN(C)S(=O)(=O)c1ccc(C#N)cc1	1	6	-11
Cc1cc(Br)cn2c(Cc3ccsc3)c(-c3ccc(Cl)cc3)nc12	-4	-2	5
Cc1nnc(SCC(=O)N2CCN(c3ccccc3)CC2)n1C1CC1	1	4	-14
CNS(=O)(=O)c1ccc2c(c1)[nH]c(=S)n2C	-8	5	-4
CCN(CC)C(=O)C1=C(C)N(CCCOC)C(=O)C(CC(=O)NC2CCCCC2)C1 (configuration not stated)	3	0	-20
O=C(COC(=O)c1c[nH]c2ccccc12)Nc1ccc(F)cc1	-2	1	-1
CCN(CC(=O)Nc1c(F)cccc1F)C(=O)c1cnc(C)cn1	3	7	-2
CC[C@]12c3[nH]c4cc(-c5ccco5)ccc4c3CCN1C(=O)[C@@H](CC(=O)NCCN1CCOCC1)C[C@@H]2C(=O)N1CCN(C(=O)c2ccco2)CC1	-1	-2	2
O=C(c1ccc(F)cc1Cl)N(Cc1ccco1)C1CCS(=O)(=O)C1 (configuration not stated)	0	5	-2
COc1ccc(/C=C/C(=O)Nc2ccc(S(=O)(=O)N3CCOCC3)cc2)c(OC)c1	8	-6	1
O=C1Nc2ccccc2C(=O)N2c3ccccc3NC(=O)C12 (configuration not stated)	1	4	-23
CCCCC1(C2CCCC2)NC(=O)NC1=O (configuration not stated)	2	2	-7
C/C(=N\Nc1ccc(S(=O)(=O)N2CCCCC2)cn1)c1ccc(O)cc1	4	-7	-32
Cc1ccc(-c2nc3ccc(Br)cn3c2Cc2ccsc2)cc1	-1	3	-10
CC(Cc1ccccc1)N(C)C(=O)CN1C(=O)c2ccccc2C1=O (configuration not stated)	1	0	-2
OC[C@H]1O[C@@H](c2nc3ccc(-c4nc(-c5cccs5)no4)cc3[nH]2)C[C@@H]1O	1	0	-13
Cc1ccc(S(=O)(=O)NCC(=O)OCC(=O)Nc2ccc3c(c2)OCCO3)cc1	1	5	-7
O=C(CC[C@H]1O[C@@H](n2ccc(=O)[nH]c2=O)[C@H](O)[C@@H]1O)N[C@H](Cc1ccccc1)C(=O)NCC1CCCO1 (some centres not stated)	4	3	-12
CC(C)N(Cc1nnc(-c2ccccc2Br)o1)C(=O)c1cc(Cl)nc2ccccc12	2	-5	3
CCCS(=O)(=O)NC(=O)C1(C)CCCN(C(=O)c2cc(OC)ccc2Br)C1 (configuration not stated)	-1	-5	-14
N#Cc1ccc(CN2CCN(c3ccc(S(=O)(=O)N4CCCC4)cn3)CC2)cc1	-3	-18	-15
Cc1cc(C(=O)N2CCCC(C)(C(=O)NS(=O)(=O)C3CC3)C2)nn1C(C)(C)C (configuration not stated)	3	4	-14
CN(CC(=O)Nc1c(Cl)cccc1Cl)C(=O)Cn1[nH]c(=O)c2ccccc2c1=O	2	1	-19
Cc1ccc(C2(C)NC(=O)N(CC(=O)NCCN3C(=O)S/C(=C\c4cccnc4)C3=O)C2=O)cc1 (configuration not stated)	-9	-9	-15
COCCCNC(=O)CC1C[C@H](C(=O)N(C(C)C)C(C)C)[C@@]2(C)c3[nH]c4ccc(OC)cc4c3CCN2C1=O (some centres not stated)	5	1	-11
Cc1noc(C)c1COc1ccc(C(=O)NCCc2ccc(F)cc2)cc1	3	0	-2
CCc1ccc([C@@H]2CC(=O)[C@@H]3CN(S(=O)(=O)c4ccc(C)cc4)[C@H](c4ccc(Cl)cc4)C[C@@H]3N2S(=O)(=O)c2ccc(C)cc2)cc1	-3	-3	-8
COc1ccc(C(=O)N[C@H](C(=O)OCCCOC(=O)[C@@H](NC(=O)c2ccc(OC)cc2)C(C)C)C(C)C)cc1	-1	-15	-29
CCOc1ccccc1OCCCC(=O)NNC(=O)c1cc(C)oc1C	-5	-3	5
CCCC(=O)N1CCC1(C)C(=O)Nc1cccc(F)c1 (configuration not stated)	0	-1	-43
COc1cc2c(cc1OC)C(=O)C(Br)CC2 (configuration not stated)	2	0	-14
CCc1cc(C(=O)N2CCN(S(=O)(=O)c3ccc(Cl)cc3)CC2)sc1C	-4	-3	-29
CN(CCO)C(=O)c1nc[nH]c1C(=O)N1CCN(C(=O)OC(C)(C)C)CC1	1	2	-1
COCCCN(C(=O)Cc1ccc(S(=O)(=O)N2CCOCC2)s1)c1c(N)n(Cc2ccccc2)c(=O)[nH]c1=O	-23	6	-12
Cc1noc(C)c1S(=O)(=O)N(C)C[C@@H]1OCc2cn(nn2)CCCC(=O)N([C@@H](C)CO)C[C@H]1C	0	3	-3&-8

4 of the compounds above, with each value named:
CCOc1ccccc1OCCCC(=O)NNC(=O)c1cc(C)oc1C
  MT1-MMP act inh: -5 | MT1-MMP act inh RFP: -3 | Yeast UUG start: 5

CC(C)N(Cc1nnc(-c2ccccc2Br)o1)C(=O)c1cc(Cl)nc2ccccc12
  MT1-MMP act inh: 2 | MT1-MMP act inh RFP: -5 | Yeast UUG start: 3

C[C@@H]1CN([C@@H](C)CO)C(=O)CCCn2nncc2CO[C@H]1CN(C)C(=O)Nc1ccccc1C(F)(F)F
  MT1-MMP act inh: 7 | MT1-MMP act inh RFP: 9 | Yeast UUG start: -1&20

CNS(=O)(=O)c1ccc2c(c1)[nH]c(=S)n2C
  MT1-MMP act inh: -8 | MT1-MMP act inh RFP: 5 | Yeast UUG start: -4

(cont.)
SMILES	MT1-MMP act inh	MT1-MMP act inh RFP	Yeast UUG start
Cc1noc(C)c1C(=O)Nc1ccccc1N1CCCC1	-1	0	-13
CC(OC(=O)c1ccc(CN2CCCC2=O)cc1)C(=O)Nc1ccc(Cl)cc1 (configuration not stated)	3	-13	-14
Cc1nnc(SCC(=O)Nc2sccc2C(N)=O)s1	0	-1	-19
COc1ccc(C=C(C#N)c2ccc(OC)cc2)cc1	-1	-2	-23
COCCN(CC(=O)Nc1cc(Cl)ccc1-n1cncn1)Cc1nc2ccccc2c(=O)[nH]1	-6	-1	-17
CCOC(=O)c1c(C)cc(O)cc1O	-2	-2	-1
CCCCCCC(=O)O	3	6	-19
CN(Cc1ccc(Cl)cc1)C(=O)COC(=O)CSc1ccc([N+](=O)[O-])cc1	0	2	-8
COc1cccc(CNC(=O)COC(=O)CNC(=O)c2ccc(-c3ccccc3)cc2)c1	1	0	-11
NC(=S)NN=C1c2cc(Cl)ccc2-c2c1cc(Cl)cc2[N+](=O)[O-]	13	-19	-15
CC(C)CN(C(=O)CCNC(=O)c1ccc(Cl)cc1)c1c(N)n(CC(C)C)c(=O)[nH]c1=O	7	1	-28
Cc1cc2c(cc(C(=O)OC(C)C(=O)NCc3ccccc3)n2C)o1 (configuration not stated)	4	6	-23
Cc1ccc(S(=O)(=O)NC(=O)C2(C)CCN2C(=O)COc2ccc(Cl)cc2)nc1 (configuration not stated)	0	4	-18
CC(OC(=O)CNC(=O)c1sc2ccccc2c1Cl)c1ccccc1 (configuration not stated)	1	3	-20
O=C(OCc1cn([C@H]2CN(CC3CCCCC3)[C@@H](c3ccccc3)C[C@@H]2O)nn1)c1ccccc1	0	1	-10

Grouped by structure: the entries above containing a furan ring, fused or not
SMILES	MT1-MMP act inh	MT1-MMP act inh RFP	Yeast UUG start
Cc1cc(SCC(=O)N2CCN(C(=O)c3ccco3)CC2)c(C)cc1Br	5	3	-13
CC(=O)Nc1nc(-c2ccccc2)cc(-c2ccco2)c1C#N	-1	2	-18
CC[C@]12c3[nH]c4cc(-c5ccco5)ccc4c3CCN1C(=O)[C@@H](CC(=O)NCCN1CCOCC1)C[C@@H]2C(=O)N1CCN(C(=O)c2ccco2)CC1	-1	-2	2
O=C(c1ccc(F)cc1Cl)N(Cc1ccco1)C1CCS(=O)(=O)C1 (configuration not stated)	0	5	-2
CCOc1ccccc1OCCCC(=O)NNC(=O)c1cc(C)oc1C	-5	-3	5
Cc1cc2c(cc(C(=O)OC(C)C(=O)NCc3ccccc3)n2C)o1 (configuration not stated)	4	6	-23

(listing goes on)
SMILES	MT1-MMP act inh	MT1-MMP act inh RFP	Yeast UUG start
Nn1c(SCC(=O)N2CCCCCC2)nnc1-c1ccco1	4	3	-31
CC1(C)C2(C#N)C(=O)NC(=O)C12C#N (configuration not stated)	3	7	-6
C[C@@H]1CN([C@H](C)CO)C(=O)CCCn2nncc2CO[C@H]1CN(C)Cc1ccc(Cl)c(Cl)c1	1	6	2&1
CCC(C)c1ccccc1N1CC(C(=O)NCCCn2nc(C)cc2C)CC1=O (configuration not stated)	0	-1	4

3 compounds out of the list, ordered by heavy-atom count, largest number first:
SMILES	MT1-MMP act inh	MT1-MMP act inh RFP	Yeast UUG start
O=C(OCc1cn([C@H]2CN(CC3CCCCC3)[C@@H](c3ccccc3)C[C@@H]2O)nn1)c1ccccc1	0	1	-10
C[C@@H]1CN([C@H](C)CO)C(=O)CCCn2nncc2CO[C@H]1CN(C)Cc1ccc(Cl)c(Cl)c1	1	6	2&1
CC1(C)C2(C#N)C(=O)NC(=O)C12C#N (configuration not stated)	3	7	-6
